High-throughput results (PubChem)
HIV TAR-Tat – HIV-1 TAR-Tat binding disruption. HIV-1 TAR RNA, Tat peptide displacement FRET; active compounds read high. z-score (test concentration not listed). 100,000 tested, 0.6% active. AID 1259389;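 further: score is relative to mean and SD of negative controls; some compounds called inactive have numbers as strong as hits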
CDC25B CDK2 inh – human CDC25B-CDK2/CyclinA binding inhibition; P30305+P24941; 94,000 tested, 0.72% active; HTRF CDC25B-CDK2/CyclinA binding, anti-His/anti-Flag; active compounds read high; z-score (test concentration not listed); AID 1259370;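 further: score is relative to mean and SD of negative controls; strong numbers were not always called active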
* hit, by the source's call; nt = no result given.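 How the source made its calls: active means z-score from 3 up in half or more of its runs; inactive means the rest.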

#1 COc1ccc(OC)c(CN2CCN(Cc3ccc(SC)cc3)CC2)c1
#2 CCCCC12CN3CC(C)(CN(C1)C3c1ccc(C(C)C)cc1)C2=O (configuration not stated)
#3 CN1CCN(C(=O)C2CCCN(c3ncnc4c3nc3n4CCCCC3)C2)CC1 (configuration not stated)
#4 CCOCCOC(=O)C1=C(C)NC2=C(C(=O)CCC2)C1c1cccs1 (configuration not stated)
#5 CCc1cc(S(N)(=O)=O)cc(CC)c1NC(C)=O
screen / no.	1	2	3	4	5
HIV TAR-Tat	0.63	0.87	1.1	0.82	nt
CDC25B CDK2 inh	0.5	-2.4	nt	-2.3	-1.9

#6 Cc1nn(-c2nc3ccccc3o2)c2c1C(c1ccccc1Cl)CC(=O)N2 (configuration not stated)
#7 COc1ccc(S(=O)(=O)Nc2ccc3oc(C)c(C(=O)O)c3c2)cc1
#8 Cc1ccc(Nc2nc(N3CCCCC3)nc(N)c2[N+](=O)[O-])cc1
#9 CCC(=O)N1c2ccc(S(=O)(=O)CCC(=O)NC(C)CC)cc2CC1C (configuration not stated)
#10 O=C(Cn1ncc2c3ccccc3n(Cc3ccccc3)c2c1=O)N1CCN(c2ccccn2)CC1
screen / no.	6	7	8	9	10
HIV TAR-Tat	1.2	0.05	0.8	nt	0.07
CDC25B CDK2 inh	nt	-0.29	nt	-0.59	-0.04

#11 CCn1cc(CCCC(=O)NC(C)C)c2ccccc21
#12 Cc1ccccc1-c1nc2sc(C)c(C)c2c(=O)o1
#13 CCCC12CN3CC(C)(CN(C1)C3c1ccc(OC)c(OC)c1)C2=O (configuration not stated)
#14 CC(C)c1nnc(NC(=O)CSCc2cc(=O)n3ccccc3n2)s1
#15 COc1nc2ccc(C)cc2cc1-c1noc(-c2ccncc2)n1
screen / no.	11	12	13	14	15
HIV TAR-Tat	2	nt	nt	0.32	0.7
CDC25B CDK2 inh	nt	-1.2	-0.87	nt	-13

Sorted by heavy-atom count (smallest number first): part of the list above
#7 COc1ccc(S(=O)(=O)Nc2ccc3oc(C)c(C(=O)O)c3c2)cc1
#3 CN1CCN(C(=O)C2CCCN(c3ncnc4c3nc3n4CCCCC3)C2)CC1 (configuration not stated)
#10 O=C(Cn1ncc2c3ccccc3n(Cc3ccccc3)c2c1=O)N1CCN(c2ccccn2)CC1
screen / no.	7	3	10
HIV TAR-Tat	0.05	1.1	0.07
CDC25B CDK2 inh	-0.29	nt	-0.04

Next entries:
#16 COc1ccc(OC)c(NC(=O)Cn2c(=O)n(Cc3ccco3)c(=O)c3cc(OC)c(OC)cc32)c1
#17 O=C(O)C1CC=CCC1C(=O)NCc1cn2ccccc2n1 (configuration not stated)
#18 Nc1c(C(=O)Nc2ccc(F)cc2)sc2nc3c(cc12)CCCC3
#19 O=C(CN1C(=O)CSc2ncccc21)NCc1cccnc1
#20 O=C(O)c1cc2ccccc2c(-c2c(O)c(C(=O)O)cc3ccccc23)c1O
screen / no.	16	17	18	19	20
HIV TAR-Tat	nt	0.98	1.2	-1.2	2
CDC25B CDK2 inh	1.1	0.17	-1	0.24	2

#21 O=C1c2ccncc2C(=O)N1C1CCCC1
#22 CCOC(=O)N1CCC(N[C@H]2CS(=O)(=O)C[C@@H]2S(=O)(=O)c2ccccc2)CC1
#23 COc1cc2c(cc1OC)C1C(=O)c3c(cc4c(c3O)C=CC(C)(C)O4)OC1CO2 (configuration not stated)
#24 Cc1ccc(CNc2nc(-c3ccccc3)no2)cc1
#25 O=C1c2cccnc2C(=O)N1c1ccc(Cc2ccc(N3C(=O)c4cccnc4C3=O)cc2)cc1
screen / no.	21	22	23	24	25
HIV TAR-Tat	2.3	0.43	0.85	-0.24	nt
CDC25B CDK2 inh	nt	-0.41	nt	nt	-0.65

Five compounds drawn at random from those above, as already listed:
#25 O=C1c2cccnc2C(=O)N1c1ccc(Cc2ccc(N3C(=O)c4cccnc4C3=O)cc2)cc1
#21 O=C1c2ccncc2C(=O)N1C1CCCC1
#23 COc1cc2c(cc1OC)C1C(=O)c3c(cc4c(c3O)C=CC(C)(C)O4)OC1CO2 (configuration not stated)
#22 CCOC(=O)N1CCC(N[C@H]2CS(=O)(=O)C[C@@H]2S(=O)(=O)c2ccccc2)CC1
#24 Cc1ccc(CNc2nc(-c3ccccc3)no2)cc1
screen / no.	25	21	23	22	24
HIV TAR-Tat	nt	2.3	0.85	0.43	-0.24
CDC25B CDK2 inh	-0.65	nt	nt	-0.41	nt

Other records
#26 CCN1CCN(c2nnc(-n3cccc3CNc3ccc(Br)c(C)c3)s2)CC1
#27 Cc1ccc(C2CC(=O)Nc3c2c(C)nn3-c2nc3ccccc3s2)cc1 (configuration not stated)
#28 Cn1c(=O)n(CC(=O)N2CCCC2)c(=O)c2cc(S(=O)(=O)NC3CCCC3)ccc21
#29 CC(=O)OCC(=O)[C@@]12OC(C)(C)O[C@@H]1CC1C3C[C@H](F)C4=CC(=O)C=C[C@]4(C)[C@@]3(F)[C@@H](O)C[C@@]12C (some centres not stated)
#30 CSc1ccc(CCNC(=O)c2cnc3sc4c(n3c2=O)CCCC4)cc1
screen / no.	26	27	28	29	30
HIV TAR-Tat	1.4	1.2	1.4	-0.94	0.87
CDC25B CDK2 inh	nt	-1.4	nt	nt	nt

#31 O=C(NCc1cccs1)C1CCN(c2cnccn2)CC1
#32 Cc1c(C(=O)C(=O)N2CC(C)CC(C)C2)c2ccccc2n1C (configuration not stated)
#33 CCOC(=O)c1noc2nc(C)nc(Nc3cc(Cl)c(OC)cc3OC)c12
#34 CCSc1nnc2c(=O)n(C)c(=O)n(C)c2n1
#35 COCCNC(=O)C(=O)Nc1c2c(nn1-c1ccccc1)CS(=O)(=O)C2
screen / no.	31	32	33	34	35
HIV TAR-Tat	0.6	nt	0.56	0.99	1.7
CDC25B CDK2 inh	-2.4	-0.48	nt	-1.7	nt

#36 CCC(C(=O)Nc1ccc(Cl)cc1)n1nc(C)c2sc3ccccc3c2c1=O (configuration not stated)
#37 Cc1c(C)[n+](=O)c(-c2ccc(Br)cc2)c(C)n1[O-]
#38 Cc1nn(C(=O)c2cccnc2)c(C)c1Sc1ccc(Br)cc1
#39 Cn1c(C(F)(F)F)n[nH]c1=S
#40 C#CCOc1ccc(C2CC(=O)Nc3c2c(C)nn3-c2nncc(-c3ccccc3)n2)cc1OCC (configuration not stated)
screen / no.	36	37	38	39	40
HIV TAR-Tat	2.3	nt	1.6	nt	2.9
CDC25B CDK2 inh	-0.8	-1.4	-0.8	-1.5	2.2

#41 O=C(/C=C/S/C=C/C(=O)c1ccc(F)cc1)c1ccc(F)cc1
#42 O=C(Nc1nc(C23CC4CC(CC(C4)C2)C3)cs1)c1c(O)c2cccc3c2n(c1=O)CC3
#43 Cc1ccccc1C(=O)Nc1nc2c(C)csc2c(=O)s1
#44 O=C(CCc1nc(CSc2nc3ccccc3s2)no1)Nc1ccc(F)cc1F
#45 CC1CN(c2nc3ccccc3nc2SCC(=O)N2CCOCC2)CC(C)O1 (configuration not stated)
screen / no.	41	42	43	44	45
HIV TAR-Tat	nt	nt	nt	1.9	0.99
CDC25B CDK2 inh	-1.5	-4.3	-6.5	nt	-2.5

Entries of single compounds as entered above:
O=C(Nc1nc(C23CC4CC(CC(C4)C2)C3)cs1)c1c(O)c2cccc3c2n(c1=O)CC3 reads HIV TAR-Tat = nt; CDC25B CDK2 inh = -4.3
Cc1ccccc1C(=O)Nc1nc2c(C)csc2c(=O)s1 reads HIV TAR-Tat = nt; CDC25B CDK2 inh = -6.5

Going on with the list.
#46 Cn1ccnc1S(=O)(=O)/C(C#N)=C/c1ccc(C(F)(F)F)cc1
#47 Cc1c(-n2c(=O)c(C#N)cc3c(=O)n4ccccc4nc32)c(=O)n(-c2ccccc2)n1C
#48 CCOCCOC(=O)C(C)Oc1ccc2c3c(c(=O)oc2c1C)CCC3 (configuration not stated)
#49 O=C(NCc1ccccn1)C(=O)NCC(c1ccco1)S(=O)(=O)c1ccc(Cl)cc1 (configuration not stated)
#50 COc1ccc(NC(=O)C(CCSC)NS(=O)(=O)c2ccc3c(c2)oc(=O)n3C)cc1 (configuration not stated)
screen / no.	46	47	48	49	50
HIV TAR-Tat	nt	0.27	nt	0.88	-0.44
CDC25B CDK2 inh	-2.8	0.87	-2.4	nt	-1.4

#51 Cc1cc(F)ccc1S(=O)(=O)N1CCc2cc3cccc(C)c3nc21
#52 O=C(Nc1ccc2c(c1)OCCO2)Nc1nnc(N2CCCCC2)s1
#53 CCCCN(C)CCNC(=O)c1cc2c(C)nc3ccccc3c2o1
#54 Cc1cccc(NC(=O)Nc2ccc3c(c2)N(C)C(=O)CS3)n1
#55 NS(=O)(=O)c1ccc(NC(=O)C(=O)Nc2ccc3nc4n(c(=O)c3c2)CCCCC4)cc1
screen / no.	51	52	53	54	55
HIV TAR-Tat	0.74	1.2	-0.54	0.88	nt
CDC25B CDK2 inh	0.84	-2.9	-2	-2.5	-1.9

#56 O=C(CSc1ccc2nnc(-c3ccc(Cl)cc3)n2n1)N1CCc2ccccc21
#57 CCOC(=O)c1sc2[nH]c(=S)n(CCNC(C)=O)c(=O)c2c1C
#58 CCCCOC(=O)C1=C(C)NC2=C(C(=O)CC(C)(C)C2)C1c1cc(OC)ccc1OC (configuration not stated)
#59 Cc1c(NC(=O)c2cccs2)c(-n2cnnc2)nn1C
#60 C/C(=N\OC(=O)c1ccc(C(F)(F)F)cc1)c1ccc[nH]1
screen / no.	56	57	58	59	60
HIV TAR-Tat	nt	nt	0.04	-0.58	nt
CDC25B CDK2 inh	-0.41	-2.8	-0.58	-0.98	-0.34

#61 CN(C(=O)Cc1c(C(=O)O)[nH]c2ccc(Cl)cc12)c1ccc(Cl)cc1
#62 COc1ccc(NC(=O)c2nc(S(C)(=O)=O)ncc2Cl)c(OC)c1
#63 O=C(Cn1c(=O)sc2ccccc21)Nc1ccc(F)cc1F
#64 Cc1nc(Oc2ccc(F)cc2)c2c3c(sc2n1)CCCC3
#65 COc1cc(N=Cc2cc(OC)c(OC)c(OC)c2)c(OC)cc1Cl
#66 Cc1cccc(NC(c2ccccn2)c2ccc3cccnc3c2O)n1 (configuration not stated)
#67 NS(=O)(=O)c1ccc(NC(=O)c2cc(F)cc3c2OCOC3)cc1
#68 CCOC(=O)C1=C(C)OC(N)=C(C#N)C1c1ccc(OCc2ccccc2)cc1 (configuration not stated)
screen / no.	61	62	63	64	65	66	67	68
HIV TAR-Tat	nt	-7.8	1.1	0.92	nt	0.47	nt	nt
CDC25B CDK2 inh	-1.5	-0.96	-0.27	nt	-1.4	2.2	-1.9	-0.55
